HTT prom inh – Primary qHTS for Identification of Small Molecule Inhibitors of Huntingtin Promoter Activity; HEK293 HTT promoter firefly luciferase reporter (activity 0% = vehicle and -100% = no light), 24 h; Potency, µM (titrated, usually from 57.5 µM), without a hit: at the highest dose activity change, negative = inhibition, most hits filed as inhibitors; 0.93% of 48,000 active; active means well fitted inhibition curve with a large enough effect; inconclusive means small, poorly fitted or top-dose-only effect; inactive means no such curve, though single readings can be large or run the other way; further: nearly all actives have a fitted effect of over 50% in size
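Firefly luciferase readout (Dual-Glo, 10 min RT) after 24 h, 37 °C compound exposure (final up to 57.5 uM) of HEK293 reporter cells cultured 24 h beforehand; PTC124 at 50 uM final as control inhibitor; activity scaled vehicle 0%, zero RLU -100%.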
PMP22 txn prim – Cell-based coincidence reporter assay to measure PMP22 gene transcription in S16 Pmp22-F2sN cells - Primary screen. S16 Pmp22-F2sN Schwann cells (luciferase reporters placed in the Pmp22 gene), FLuc/NLuc coincidence luminescence, 24 h. Potency, µM (highest dose often 57.5 µM), for the others: at the highest dose activity change, negative = inhibition, most hits filed as inhibitors. 2% of 43,000 active; active = clear falling dose curves in both reporters; inconclusive = both reporters move, but less clearly or upward; inactive = either reporter flat; the % is the NLuc reporter signal; further: on the % scale 0 is the no-effect control and ±100 the full control effect; some results filed as inactive show a strong effect at the top dose
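Reporter cells (S16 Pmp22-F2sN, 500–1,000 per well) exposed to compounds for 24 h, 37C, 5% CO2; lysis with FLuc read after 10 min, then Stop&Glo and NLuc read after 10 min.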
The depositor's hits bear a star; u = inconclusive; x = no result given; & = joins results of further samples; [ ] = remark or other dose. Potency means the concentration at half of the fitted maximal effect.

SMILES	HTT prom inh	PMP22 txn prim
COC(=O)c1cc(NC(=O)Cn2nc(C)n3cccc3c2=O)cc(C(=O)OC)c1	12%	2%
CCC(Sc1nc2cc(OC)c(OC)cc2c(=O)n1CCc1ccc(Cl)cc1)C(=O)NCCOC (stereo not given)	-5%	23%
Cc1ccc(NC(=O)c2nc(S(C)(=O)=O)ncc2N(Cc2ccco2)Cc2ccco2)cc1C	u	u
COCCc1nn2c(=O)cc(COC(=O)c3ccccc3C)nc2s1	38%[activator]	u
Cc1ccc(OCc2nc(C#N)c(NCCc3ccccc3)o2)cc1	-15%	-10%
Cc1ccc(C(=O)NCCSc2c(C)[nH]c3ccccc23)cc1C	u	6%
CCCN(C(=O)CCc1nc(-c2ccc(OC)cc2)no1)c1ccccc1F	u	u
N#Cc1ccc(COC[C@H]2O[C@@H](n3c(NCc4ccc(Cl)c(Cl)c4)nc4c(N)ncnc43)[C@@H](O)[C@@H]2O)cc1	-12%	x
O=C(CCC1N=C2c3ccccc3N=C(SCc3ccccc3F)N2C1=O)NCCc1ccccc1 (stereo not given)	-13%	11%
Cn1cc(-c2cc3n(n2)CCC(=O)N3CCCC(=O)Nc2ccccc2F)c2ccccc21	-22%	u
COc1cc(C2c3c(oc4ccccc4c3=O)C(=O)N2c2nc(C)c(C)s2)ccc1O (stereo not given)	-21%[11.5 µM]	u
Cc1ccc(-c2cc(-c3coc4ccc(Cl)cc4c3=O)c3c(n2)-c2ccccc2OC3)cc1	-9%	-2%
COc1cc(NC(=O)CCS(=O)(=O)c2ccc(Br)cc2)cc(OC)c1	-16%	-3%
CC(C)N(Cc1nc(-c2ccc(Cl)cc2)no1)C(=O)c1ccco1	u	-34%
COc1ccc(-c2nc(CSc3nnc(C)n4c3cc3occc34)c(C)o2)cc1OC	-13%	-39%
Cc1ccc(C)c(N2CCN(c3nc4ccc(C)cc4nc3-n3nc(C)cc3C)CC2)c1	-1%	7%
O=C(NCCS(=O)(=O)N1CCN(c2ccc(F)cc2)CC1)c1cccc(C(F)(F)F)c1	u	u
COc1ccc(-c2cc(C(F)(F)F)n3nc(C(=O)Nc4ccc(Cl)cc4C(F)(F)F)cc3n2)cc1OC	-11%	17%
COc1ccc2cc(-c3cn4c(n3)sc3cc(F)ccc34)c(=O)oc2c1	0%	11%
Cc1ccc(-c2csc(-c3c(N)c(C(=O)c4ccc5c(c4)OCO5)n4ccccc34)n2)cc1C	-24%	u
Cc1cccc(-c2nc3nc(C)cc(NC(C)c4ccccc4)n3n2)c1 (stereo not given)	-8%	-35%
O=[N+]([O-])c1cc(-c2nc(-c3ccccc3)no2)ccc1NCC1CCCO1 (stereo not given)	25%	u
CCCCOC(=O)c1ccc(NC(=O)c2ccc3c(c2)CCN3S(=O)(=O)c2ccccc2)cc1	u	2%
COc1ccc(N2CCN(S(=O)(=O)c3ccc(C4CCCCC4)cc3)CC2)cc1	-14%	0%
CCOC(=O)c1[nH]c(C)c(CCC(=O)N2CCN(c3ccc(Cl)cc3)CC2)c1C	u	u
CCOc1ccccc1C(=O)Nc1ccc2nc(N(CC)CC)cc(C)c2c1	-1%	-23%
COc1ccc(-n2c(SCC(=O)Nc3nnc(C)s3)nc3c([nH]c4ccccc43)c2=O)cc1	-20%	-19%
COc1ccc(CNC(=O)c2cc3oc4ccccc4c3n2C)cc1OC	-28%	-5%
COc1ccc(CCNc2nc3c(-c4cccc(C(F)(F)F)c4)nnn3c3ccccc23)cc1OC	-7%	-35%
COc1ccc(-c2nc3ccccc3s2)cc1NC(=O)c1cccc([N+](=O)[O-])c1C	71%[activator]	u
O=C(NNc1ncnc2c1cnn2-c1ccccc1)c1cccc(Cl)c1	-18%	-11%
COc1cccc(CN2C(=O)c3ccccc3Sc3ccc(C(=O)N(C)Cc4ccccc4)cc32)c1	-30%	u
COc1cccc(-c2noc(COc3ccc(C(C)(C)C)cc3)n2)c1	1%	18%
CCOc1ccc(N2CC(c3nc4ccccc4n3CCOc3ccc(CC)cc3)CC2=O)cc1 (stereo not given)	-16%	u
CCc1nn2c(=O)cc(COC(=O)c3ccc(NC(=O)C4CCCCC4)cc3)nc2s1	13%	-16%
FC(F)(F)c1cc(-c2cccc(Br)c2)nc2ncnn12	-11%	-14%
CCOC(=O)c1cc(-c2ccccc2)n(CCCC(=O)Nc2ccc(C)c(C)c2)c1C	u	u
CCCN(C(=O)C(=O)Nc1ccc2nc3n(c(=O)c2c1)CCCCC3)c1ccc(OCC)cc1	2%	-10%
CN1CCC(N(Cc2cccs2)c2ccccc2)CC1	-16%	x
CC(C)C(=O)NC1CC(=O)N(c2ccc3c(c2)OCCO3)C1 (stereo not given)	13%	7%
CCOC(=O)c1cccc(NC(=O)c2ccc3c(c2)nnn3C2CCCC2)c1	-1%	-7%
Cc1ccc(CN(Cc2cccn2-c2nnc(N3CCCC3=O)s2)C(=O)Nc2ccccc2C(F)(F)F)cc1	u	19µM*
COCCN1C(=O)c2[nH]nc(-c3cc(C)ccc3O)c2C1c1ccc(C(C)C)cc1 (stereo not given)	-12%	u
CCOc1ccc(/C=C/C(=O)Nc2sc3c(c2C(=O)OC)C(C(=O)OC)CC3)cc1 (stereo not given)	-13%	u
COc1ccc(C(=O)NC2(C(F)(F)F)C(=O)NC(C)=C2C#N)cc1 (stereo not given)	-2%	18%
CCc1nc2ccc(C(=O)NCCc3ccccc3OC)cc2nc1CC	u	-26%
Cc1ccc(-n2c3c(cc(-c4nc(-c5ccc(Cl)cc5)cs4)c2=O)C(=O)CC(C)(C)C3)cc1C	-10%	0%
CCOC(=O)C1=C(CS(=O)(=O)c2cccc(C(F)(F)F)c2)NC(=O)NC1c1cccc(OC)c1 (stereo not given)	-22%	-2%
Cc1ccc2c(CC(=O)Nc3cccc(Cl)c3C)coc2c1	-5%	2%
Cc1cccc(CN2CCN(CC(=O)NCCc3ccc(Cl)cc3)C2=O)c1	-11%	u
CCC(=O)c1ccc(O)cc1	0%	x
COCCCNc1oc(-c2ccc(COc3ccc(Cl)cc3)o2)nc1C#N	u	u
COc1cc(OC)cc(N2C(=O)N(CC(=O)c3ccc(F)cc3)c3ccccc3S2(=O)=O)c1	-8%	37%
COc1ccc(-c2nc3ccccc3s2)cc1NC(=O)c1cccc(F)c1	-19%	-43%
Nc1nonc1C(=O)NCCNCc1ccc(Cl)c(Cl)c1	-4%	-15%
COc1ccc(-c2ccc(CCC(=O)O)n2-c2cc(Cl)ccc2O)cc1	9%	u
Cc1cccc(Cc2c(C)nc3nc(SCc4ccccc4F)nn3c2C)c1	-10%	u
O=C(NCCc1csc2nc(-c3ccc(F)cc3)nn12)c1cccc(C(F)(F)F)c1	u	-10%
COc1cc(C(CC(=O)Nc2ccc(C)c(F)c2)N2Cc3ccccc3C2=O)cc(OC)c1OC (stereo not given)	1%	4%
CCOc1ccc2nc(N3CCCC(C(=O)Nc4ccc(CC)cc4)C3)sc2c1 (stereo not given)	31%	-74%

Later entries
SMILES	HTT prom inh	PMP22 txn prim
COc1ccc(NC(=O)CN2CCN(Cc3ccc(F)cc3)S2(=O)=O)cc1Cl	u	u
CCS(=O)(=O)N1CCc2cc(C(=O)NCCc3ccccc3)ccc21	56%[activator]	0%
CCOc1cc2[nH]c(=O)n(CCCC(=O)N3CCN(c4cccc(Cl)c4)CC3)c(=O)c2cc1OCC	u	u
O=C(NCc1ccc(F)cc1)c1nnc(Cc2cccc(F)c2)o1	-19%	-10%
CC(=O)Nc1ccc(NC(=O)CN2C(=O)CC(c3ccco3)Sc3ccccc32)cc1 (stereo not given)	-13%	-18%
Cc1ccccc1C(OCCN(C)C)c1ccccc1 (stereo not given)	0%&-12%	x
Cc1ccc2[nH]c(=O)c3cc(C(=O)N4CCN(c5ccccc5F)CC4)sc3c2c1	-4%	-13%
CCOC(=O)c1c(S(=O)(=O)N2CCCC(C(=O)Nc3ncccc3C)C2)c(C)n(C)c1C (stereo not given)	-3%	7%
Fc1ccc(Nc2nc3ccccc3n3cnnc23)c(F)c1	5%	u
Cc1nn(CC(=O)N2CCN(c3cccc(C(F)(F)F)c3)CC2)c(=O)c2cccn12	8%	-7%
COc1cc(NC(=O)Cn2c(=O)n(Cc3ccco3)c(=O)c3oc4ccccc4c32)cc(OC)c1	-8%	-10%
COc1cccc(NC(=O)Cn2c(-c3nonc3N)nc3ccccc32)c1	-19%	0%
Cc1c(C2=CCN(S(=O)(=O)c3ccc(CC(C)C)cc3)CC2)c2ccccc2n1CC(=O)N1CCCC1	-24%	u
C#CCN(C)CCCOc1ccc(Cl)cc1Cl	7%	x
O=C(NCCCN1CCN(c2ccc(F)cc2)CC1)c1cnn(-c2ccc(F)cc2)c1-n1cccc1	u	u
CCN(Cc1ccccc1)C(=O)Cn1ncc2c(=O)oc3ccc(C)cc3c21	1%	1%
O=C(Cn1cc(S(=O)(=O)Cc2ccccc2F)c2ccccc21)NCc1ccccc1Cl	-2%	u
Cc1ccc(CN(Cc2cccn2-c2nnc(N3CCCC3=O)s2)C(=O)Nc2ccc(F)cc2)cc1	-11%	u
O=C1Cc2cc(S(=O)(=O)N3CCN(c4cccc(Cl)c4)CC3)ccc2N1	-7%	0%
Cc1c(C(=O)OC2CCCCCC2)[nH]c2c1C(=O)CC(c1ccccc1)C2 (stereo not given)	u	u
COc1ccc(N2CCN(c3oc(/C=C/c4cc(OC)c(OC)c(OC)c4)nc3C#N)CC2)cc1	-8%	16%
CN(C)CCNC(=O)C(=O)NCC(c1ccc2c(c1)OCO2)N1CCOCC1 (stereo not given)	1%	-36%
COc1ccc(C2c3c(n(C)c4ccccc34)C(=O)N2CC(=O)Nc2cccc(Cl)c2)cc1 (stereo not given)	u	-1%
COc1ccc(NC(=O)c2cccn2-c2nnc(N3CCCCC3)s2)cc1Cl	-36%	-27%

Rewritten as labelled records: entries from further up.
Fc1ccc(Nc2nc3ccccc3n3cnnc23)c(F)c1
  HTT prom inh = 5% | PMP22 txn prim = u
COc1ccc(CCNc2nc3c(-c4cccc(C(F)(F)F)c4)nnn3c3ccccc23)cc1OC
  HTT prom inh = -7% | PMP22 txn prim = -35%

Later entries:
SMILES	HTT prom inh	PMP22 txn prim
CCOc1ccc(N(CC(=O)Nc2ccc(OC)cc2)S(=O)(=O)c2ccc(Cl)cc2)cc1	1%	u
CCCc1ccc(NC(=O)C2CCCN(c3cnccn3)C2)cc1 (stereo not given)	1%	-21%
O=C(NCc1ccco1)c1ccc2c(c1)N(Cc1ccc(Cl)cc1)C(=O)c1ccccc1S2(=O)=O	u	13%
CCOC(=O)N1CCc2c(sc3c2c(=O)n(Cc2ccccc2)c(=O)n3CC(=O)Nc2ccccc2F)C1	-8%	7%
CC(C)OC(=O)c1c(NC(=O)c2cccc(C(F)(F)F)c2)sc2c1CCCC2	1%	-1%
CN1CCc2c(sc(NC(=O)CSc3ccccc3)c2-c2nc3ccccc3s2)C1	-7%	u
O=c1[nH]c2ccc(NCc3ccc(-c4ccc(Br)cc4)o3)cc2[nH]1	-25%	-28%
N#C/C(=C\c1ccc(Cl)cc1)c1nc(-c2cc3c(ccc4ccccc43)oc2=O)cs1	-1%	-18%
COc1ccc(CNCc2c(C(=O)O)c(C)n(Cc3ccccc3C)c2C)cc1OC	-14%	-26%
Cc1cccc(NC(=O)c2oc3ccc(S(=O)(=O)N4CCCCC4)cc3c2C)c1C	-21%	12%
CC(=O)[C@H]1CC[C@H]2[C@@H]3CCC4=CC(=O)CC[C@]4(C)[C@H]3CC[C@]12C	-26%	x
CCOc1ccc(CCNC(=O)C2COc3ccccc3C2)cc1OCC (stereo not given)	-15%	u

7 entries already listed, ordered by the number in HTT prom inh, ascending.
| molecule | HTT prom inh |
| --- | --- |
| O=c1[nH]c2ccc(NCc3ccc(-c4ccc(Br)cc4)o3)cc2[nH]1 | -25% |
| Cc1cccc(NC(=O)c2oc3ccc(S(=O)(=O)N4CCCCC4)cc3c2C)c1C | -21% |
| CCOc1ccc(CCNC(=O)C2COc3ccccc3C2)cc1OCC (stereo not given) | -15% |
| COc1ccc(CNCc2c(C(=O)O)c(C)n(Cc3ccccc3C)c2C)cc1OC | -14% |
| CN1CCc2c(sc(NC(=O)CSc3ccccc3)c2-c2nc3ccccc3s2)C1 | -7% |
| N#C/C(=C\c1ccc(Cl)cc1)c1nc(-c2cc3c(ccc4ccccc43)oc2=O)cs1 | -1% |
| CCOc1ccc(N(CC(=O)Nc2ccc(OC)cc2)S(=O)(=O)c2ccc(Cl)cc2)cc1 | 1% |

Single entries from the entries so far.
Result of `CCCc1ccc(NC(=O)C2CCCN(c3cnccn3)C2)cc1` (stereo not given) under PMP22 txn prim: -21%
Result of `CN1CCc2c(sc(NC(=O)CSc3ccccc3)c2-c2nc3ccccc3s2)C1` under HTT prom inh: -7%

Bioassay records: PubChem BioAssay, National Center for Advancing Translational Sciences (NCATS)
